HEK293 tox: cytotoxic in the GLP-1 receptor inverse agonist counter-screen; HEK293 cAMP-luciferase reporter cells, luminescence, 24 h; Potency, µM (top dose mostly 38.3 µM), without a hit: at the top dose activity change, negative = inhibition, most hits filed as inhibitors; 0.13% of 410,000 active;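 further: loss of luciferase light is scored as toxicity; potency means the concentration at half of the fitted maximal effect; on the % scale 0 is the no-effect control and ±100 the full control effect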
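1536-well qHTS counterscreen of the MLSMR; 200 cells/uL, 12 h pre-incubation, 23 nL cpd, 24 h at 37 deg C 5% CO2, luciferase detection reagent, 12 min RT, luminescence. Inhibition = undesired.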
GLP1R ag: agonists of human GLP-1 receptor; P43220; HEK293 GLP-1R CRE-luciferase, luminescence, 4-6 h; cells express a hypersensitive GLP-1R form; Potency, µM (doses to about 45.6 µM), for the others: at the highest dose activation, most hits filed as activators; 0.007% of 380,000 active; AID 624172; further: potency means the concentration at half of the fitted maximal effect; % of control where 0% means no effect
Target sequence (P43220 whole entry, looked up): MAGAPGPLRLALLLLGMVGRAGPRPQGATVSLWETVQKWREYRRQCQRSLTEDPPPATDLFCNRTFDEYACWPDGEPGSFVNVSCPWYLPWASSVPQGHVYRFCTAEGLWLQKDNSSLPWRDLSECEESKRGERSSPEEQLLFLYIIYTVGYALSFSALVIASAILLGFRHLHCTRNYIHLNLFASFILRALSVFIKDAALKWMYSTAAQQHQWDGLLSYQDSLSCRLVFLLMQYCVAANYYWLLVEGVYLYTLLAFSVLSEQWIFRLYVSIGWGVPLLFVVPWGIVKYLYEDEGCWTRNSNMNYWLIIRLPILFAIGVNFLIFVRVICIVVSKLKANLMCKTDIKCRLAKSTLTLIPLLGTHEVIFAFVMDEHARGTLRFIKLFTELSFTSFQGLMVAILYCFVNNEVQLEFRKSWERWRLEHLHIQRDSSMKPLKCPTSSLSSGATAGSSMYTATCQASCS
IL-2 act: IL-2 activation; 0.065% of 360,000 active; AID 652025; activation, % (series mostly up to about 46 µM); IL-2 activation reporter assay, cell-based qHTS; stimulated with anti-CD3/CD4/CD28 beads; in transgenic mouse T cells; in the data active means activation above about 50%; inconclusive means mostly about 30% to 49%; further: 0% is about no effect
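Readout: EGFP and DsRed signals by fluorescent plate cytometry. Unstimulated transgenic mouse T cells received compound 60 min before antibody-bead stimulation, then incubated 18 h at 37 degrees C.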
DRD3 agonist: activates the human D3 dopamine receptor; P35462; D3R DiscoveRx beta-arrestin cells, luminescence, 90 min; max activation, %; 0.58% of 410,000 active; AID 652048; in the data active means max activation above about 30%; further: 0% is about no effect; mostly tested at two doses, the higher about 12 µM
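Agonist mode: compounds and dopamine controls were applied to plated cells for 90 min at 37 degrees C after an overnight attachment at 1500 cells/well. Luminescent read-out followed 30 - 60 minutes at room temperature with DiscoveRx detection reagent.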
GLP1R inv ag: inverse agonists of human GLP-1 receptor; P43220; HEK293 GLP-1R CRE-luciferase, luminescence, 24 h; GLP-1R form is constitutively active; Potency, µM (doses to about 38.3 µM), inactives show at the top dose activity change, negative = inhibition, usual class: inhibitors; 1.6% of 410,000 active; AID 624417; further: potency means the concentration at half of the fitted maximal effect; on the % scale 0 is the no-effect control and ±100 the full control effect; nearly all actives have a fitted effect of over 55% in size
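Seeding at 200 cells/uL, 12 h culture, 24 hr compound treatment, then luciferase reagent and a luminescence read; cells are HEK293 stably expressing a constitutively active GLP-1R plus cAMP-responsive luciferase.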
PLK1 PBD inh: inhibitors of human PLK1 polo-box domain binding; P53350; Plk1 PBD binding of FITC phosphopeptide, fluorescence polarization; Potency, µM, inactives show max response, negative = inhibition, hits mostly inhibitors; 2.8% of 360,000 active; further: potency means the concentration at half of the fitted maximal effect; series mostly up to about 57 µM; on the % scale 0 is the no-effect control and ±100 the full control effect; nearly all actives have a fitted effect of over 65% in size
D3 antag: blocks the human D3 dopamine receptor. max response, negative = inhibition, %. P35462. 2.5% of 360,000 active. D3R cells, DiscoveRx beta-arrestin luminescence, antagonist mode; stronger effect = lower value; in the data active means max response below about -50%; inconclusive means no clear call, values can overlap the other calls; further: on the % scale 0 is the no-effect control and ±100 the full control effect; mostly tested at two doses, the higher about 12 µM
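Cells plated overnight at 1500 cells/well, then exposed to library compounds with dopamine controls for 90 minutes at 37 degrees C. DiscoveRx reagent added for 30–60 minutes at room temperature; luminescence read, quantitative HTS format.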
WRN inhibitor: blocks human WRN helicase; Q14191; WRN helicase unwinding, fluorescent forked duplex, kinetic; Potency, µM (doses to about 114 µM), for the others: at the highest dose activity change, negative = inhibition, usual class: inhibitors; 0.46% of 360,000 active; AID 651768; further: potency means the concentration at half of the fitted maximal effect; on the % scale 0 is the no-effect control and ±100 the full control effect; nearly all actives have a fitted effect of over 55% in size
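Primary qHTS, 1536-well format. 20 nM WRN + compound, 15 min RT; start with 100 nM forked fluorophore/quencher duplex, 2 mM ATP (final); kinetic read ex 525/em 598 nm.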
Numbers without * were called inactive; ? = inconclusive; . = no result given; [ ] = remark or other dose. Unless noted, the call rests on the fitted dose curve; in most records, active means well fitted curve in the direction sought with a large enough effect; inconclusive means small, poorly fitted or top-dose-only effect, or another doubt; inactive means no such curve, though single readings can be large; an effect the other way counts as inactive or inconclusive. The list is partial; rates above refer to the full screens.

SMILES	HEK293 tox	GLP1R ag	IL-2 act	DRD3 agonist	GLP1R inv ag	PLK1 PBD inh	D3 antag	WRN inhibitor
CC1=C(/C=C/C(C)=N\NC(=O)c2ccncc2)C(C)(C)CCC1	3%	7%	-0.3	0	-18%	-9%	-19	3%
CC1(OC(=O)CCc2ccccc2)C(=O)C=C2C=C(c3ccc(C#N)cc3)N(CC3CC3)C=C2C1=O (centres undefined)	6%	-1%	0.0	0	7%	-20%	0	4%
O=C(O)c1c2c(nc3ccccc13)CCCCC2	5%	-7%	-2.4	-4	12%	-12%	-14	-5%
Cc1cc2c(cc1C)-n1nnnc1C(N1CCN(CC(=O)N3CCCC3)CC1)C(=O)N2 (centres undefined)	2%	.	1.9	3	17%	1%	?	1%
CCOC(=O)c1nc2nc(-c3cccs3)cc(C(F)(F)F)n2n1	2%	11%	0.8	3	8%	-11%	-20	-4%
O=C(COC(=O)c1cc([N+](=O)[O-])ccc1NCCO)Nc1ccc2c(c1)OCO2	3%	21%	-0.8	-3	58%[activator]	-11%	-5	-23%[57.1 µM]
CCn1c(COc2cccc(C)c2)nnc1SCC(=O)Nc1cccc(C(=O)O)c1	0%	-9%	0.9	-2	15%	-7%	-21	-19%
Cc1nc2c(C(=O)NCCc3ccccc3Cl)c[nH]n2c(=O)c1Cl	-1%	3%	-2.4	-4	0%	27µM*	10	?
C=CCn1c(SCC(=O)NCC2CCCO2)nc2scc(-c3ccc(OC)cc3)c2c1=O (centres undefined)	16%	1%	-4.8	7	?	-10%	21	-28%
CC(=O)c1cc(C#N)c(N2CCCC2)nc1C	7%	13%	0.9	7	39%[activator]	30µM*	6	-2%

Structural class: those above with a COOH group (2)
SMILES	HEK293 tox	GLP1R ag	IL-2 act	DRD3 agonist	GLP1R inv ag	PLK1 PBD inh	D3 antag	WRN inhibitor
O=C(O)c1c2c(nc3ccccc13)CCCCC2	5%	-7%	-2.4	-4	12%	-12%	-14	-5%
CCn1c(COc2cccc(C)c2)nnc1SCC(=O)Nc1cccc(C(=O)O)c1	0%	-9%	0.9	-2	15%	-7%	-21	-19%

The list goes on:
SMILES	HEK293 tox	GLP1R ag	IL-2 act	DRD3 agonist	GLP1R inv ag	PLK1 PBD inh	D3 antag	WRN inhibitor
COc1ccc2c(CC(=O)N3CCc4cc(OC)c(OC)cc4C3)coc2c1	0%	17%	-2.1	4	59%[activator]	2%	11	-16%
O=C(Nc1ccccc1C(=O)O)c1cc(S(=O)(=O)Nc2cccc(F)c2)ccc1Cl	9%	-1%	3.1	9	27%	-18%	52	-3%
CS(=O)(=O)N(CC(=O)NCCSC1CCCCC1)c1ccc2c(c1)OCO2	16%	7%	2.7	2	0%	-5%	-11	-28%[57.1 µM]
O=C(OCC(=O)N1CCc2ccccc21)c1c2c(nc3ccccc13)CCCCC2	-2%	-21%	-0.4	3	?	2%	43	-5%
Cc1ccc(C)c(N2CCN(C3C(=O)Nc4ccccc4-n4nnnc43)CC2)c1 (centres undefined)	-20%	.	-0.6	-7	?	-16%	-16	-8%
CCOc1ccc(NC(=O)CSc2nnc(Cn3cnc([N+](=O)[O-])n3)n2CC)cc1	9%[7.66 µM]	-1%	0.5	-4	9%[7.66 µM]	3%	8	-3%
COc1ccccc1NC(=O)CCc1nc2sc3c(c2c(=O)[nH]1)CCCC3	4%	18%	-0.1	11	?	1%	0	-32%
CCCc1cc(=O)[nH]c(SCC(=O)Nc2sc(C(N)=O)c(C)c2C(=O)OCCOC)n1	4%	2%	1.0	1	-29%	-6%	1	-6%
CC1(C)CC(=O)C(=C2SCCCS2)C(=O)C1	1%	-1%	-0.6	6	8%	-2%	1	-8%
CCCCOc1ccc2c(c1)/C(=C(\C(Cl)=C(Cl)Cl)[N+](=O)[O-])N2	150%[activator]	0%	0.2	-11	-8%	-15%	-11	4%
O=C(Cc1cccs1)Nc1ccc(C(=O)O)cc1	-11%	-18%	0.3	4	-10%	-8%	-9	-10%[57.1 µM]
N#Cc1ccc(/C=N/NC(=O)c2cc(-c3cccs3)nc3ccccc23)cc1	?	5%	2.5	1	?	-1%	47	-29%[57.1 µM]
COC(=O)CCCC1=CC2=CC(=O)C(C)(OC(=O)CCc3ccccc3)C(=O)C2=CO1 (centres undefined)	1%	-3%	0.5	-4	2%	?	3	?

An excerpt of these results, with bars between the fields:
SMILES | HEK293 tox | GLP1R ag | IL-2 act | DRD3 agonist | GLP1R inv ag | PLK1 PBD inh | D3 antag | WRN inhibitor
O=C(Nc1ccccc1C(=O)O)c1cc(S(=O)(=O)Nc2cccc(F)c2)ccc1Cl | 9% | -1% | 3.1 | 9 | 27% | -18% | 52 | -3%
CS(=O)(=O)N(CC(=O)NCCSC1CCCCC1)c1ccc2c(c1)OCO2 | 16% | 7% | 2.7 | 2 | 0% | -5% | -11 | -28%[57.1 µM]
O=C(OCC(=O)N1CCc2ccccc21)c1c2c(nc3ccccc13)CCCCC2 | -2% | -21% | -0.4 | 3 | ? | 2% | 43 | -5%
Cc1ccc(C)c(N2CCN(C3C(=O)Nc4ccccc4-n4nnnc43)CC2)c1 (centres undefined) | -20% | . | -0.6 | -7 | ? | -16% | -16 | -8%
CCOc1ccc(NC(=O)CSc2nnc(Cn3cnc([N+](=O)[O-])n3)n2CC)cc1 | 9%[7.66 µM] | -1% | 0.5 | -4 | 9%[7.66 µM] | 3% | 8 | -3%
COc1ccccc1NC(=O)CCc1nc2sc3c(c2c(=O)[nH]1)CCCC3 | 4% | 18% | -0.1 | 11 | ? | 1% | 0 | -32%
CCCc1cc(=O)[nH]c(SCC(=O)Nc2sc(C(N)=O)c(C)c2C(=O)OCCOC)n1 | 4% | 2% | 1.0 | 1 | -29% | -6% | 1 | -6%
CC1(C)CC(=O)C(=C2SCCCS2)C(=O)C1 | 1% | -1% | -0.6 | 6 | 8% | -2% | 1 | -8%
CCCCOc1ccc2c(c1)/C(=C(\C(Cl)=C(Cl)Cl)[N+](=O)[O-])N2 | 150%[activator] | 0% | 0.2 | -11 | -8% | -15% | -11 | 4%
O=C(Cc1cccs1)Nc1ccc(C(=O)O)cc1 | -11% | -18% | 0.3 | 4 | -10% | -8% | -9 | -10%[57.1 µM]
N#Cc1ccc(/C=N/NC(=O)c2cc(-c3cccs3)nc3ccccc23)cc1 | ? | 5% | 2.5 | 1 | ? | -1% | 47 | -29%[57.1 µM]
COC(=O)CCCC1=CC2=CC(=O)C(C)(OC(=O)CCc3ccccc3)C(=O)C2=CO1 (centres undefined) | 1% | -3% | 0.5 | -4 | 2% | ? | 3 | ?
